Source: PubChem
AF4-AF9 inh – inhibitors of human MLL-AF4/AF9 interaction. P42568. AlphaScreen, biotin-AF4 peptide binding to FLAG-AF9. inhibition, % at 10 µM. actives 0.47% (n = 350,000). AID 651704;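 active = every replicate reaching a set inhibition limit, whatever the replicate mean, cut at about 25% in these data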;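 note: 0% = plate neutral control median and 100% = total signal loss; the record names both 10 and 1 µM as test concentration; the first replicate is given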
Target sequence (P42568 whole entry, looked up): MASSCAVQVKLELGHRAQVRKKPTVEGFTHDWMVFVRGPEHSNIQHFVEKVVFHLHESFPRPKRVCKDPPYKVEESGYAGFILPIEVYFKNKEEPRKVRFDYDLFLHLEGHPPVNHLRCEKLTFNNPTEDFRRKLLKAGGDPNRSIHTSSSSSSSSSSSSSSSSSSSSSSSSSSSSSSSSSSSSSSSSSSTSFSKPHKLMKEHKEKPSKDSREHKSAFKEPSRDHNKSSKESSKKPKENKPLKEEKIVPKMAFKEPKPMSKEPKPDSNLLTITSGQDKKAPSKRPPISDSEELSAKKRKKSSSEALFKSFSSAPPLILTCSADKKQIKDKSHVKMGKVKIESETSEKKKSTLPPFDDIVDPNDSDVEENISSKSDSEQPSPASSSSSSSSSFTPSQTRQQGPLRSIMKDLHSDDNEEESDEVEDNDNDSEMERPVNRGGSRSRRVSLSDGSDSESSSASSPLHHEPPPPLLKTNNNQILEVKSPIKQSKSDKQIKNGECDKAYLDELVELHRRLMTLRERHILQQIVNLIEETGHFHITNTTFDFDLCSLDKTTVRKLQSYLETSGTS
The depositor's hits bear a star.

cpd	AF4-AF9 inh	SMILES
1	0.6	CS(=O)(=O)N1CC(=O)N2[C@H](CO)[C@@H](c3ccc(C#CC4CCCC4)cc3)[C@H]2C1
2	-2.9	Cn1cnc(S(=O)(=O)N2[C@@H]3CNC[C@H]2C3c2ccc(-c3ccc(F)cc3)cc2)c1 (some centres not stated)
3	1.1	CC(C)C#Cc1ccc([C@@H]2[C@@H](CO)N3C(=O)CN(C(=O)c4ccccn4)C[C@H]23)cc1
4	-4.1	O=C(NCC[C@H]1CC[C@H](NC(=O)C2CCOCC2)[C@H](CO)O1)Nc1ccc(Cl)cc1
5	-0.9	O=C1CN(Cc2ccc(F)cc2)C[C@H]2[C@@H](c3ccc(-c4cccnc4)cc3)[C@H](CO)N12
6	3.2	O=C(C1CCCC1)N1CC[C@@H]2[C@@H](CO)Nc3ccc(Br)cc3[C@@H]21
7	5.1	C/C=C/c1ccccc1[C@H]1[C@@H](CO)N(C(=O)Nc2ccccc2F)[C@H]1C#N
8	8.4	O=C(CC1CC1)N1CC(=O)N2[C@@H](CO)[C@H](c3ccc(/C=C/c4ccccc4)cc3)[C@@H]2C1
9	-2.5	Cc1noc(C)c1NC(=O)N(C)C[C@@H]1OCCCC[C@H](C)Oc2ccc(NC(=O)c3ccccc3)cc2C(=O)N([C@H](C)CO)C[C@H]1C
10	0.3	C[C@H]1CN([C@@H](C)CO)C(=O)c2cc(NS(C)(=O)=O)ccc2O[C@H]1CN(C)Cc1ccc(Cl)c(Cl)c1
11	-1.6	CO[C@H]1CN(C)C(=O)c2cc(NC(=O)c3ccc4c(c3)OCO4)ccc2OC[C@@H](C)NC[C@@H]1C
12	0.7	COc1ccc(NC(=O)N2CC(=O)N3[C@@H](CO)[C@H](c4ccc(-c5ccc(C)cc5)cc4)[C@@H]3C2)cc1
13	3.4	O=C(C1CCC1)N1CC(=O)N2[C@H](C1)[C@H](c1ccc(C#CCc3ccccc3)cc1)[C@@H]2CO
14	-2.2	CCCNC(=O)N1CC(=O)N2[C@H](CO)[C@H](c3ccc(C#Cc4cccc(F)c4)cc3)[C@@H]2C1
15	-1.5	Cc1ccc(S(=O)(=O)Nc2ccc3c(c2)C(=O)N([C@@H](C)CO)C[C@@H](C)[C@H](CN(C)C(=O)Cc2ccccc2)OCCCC[C@@H](C)O3)cc1
16	-3.2	O=C(NC[C@H]1CC[C@H]2[C@H](CN2Cc2cccc(Cl)c2)O1)C1CCC1
17	-3.7	CNC(=O)C[C@H]1CC[C@@H]2[C@@H](COc3ccc(NC(=O)C4CCCCC4)cc3C(=O)N2C)O1
18	14	COc1ccc(C#Cc2ccc3c(c2)[C@@H]2[C@@H](CCN2C(=O)C2CC2)[C@H](CO)N3)cc1
19	-0.9	O=C(Nc1ccc2c(c1)[C@@H]1C[C@@H](CC(=O)N3CCCCC3)O[C@H](CO)[C@@H]1O2)Nc1ccccc1F
20	-0.3	C[C@H](CO)N1C[C@H](C)[C@@H](CN(C)C(=O)c2ccccc2)OCCCC[C@H](C)Oc2ccc(NS(=O)(=O)c3cn(C)cn3)cc2C1=O
21	19	COc1ccc2c3c(n(C)c2c1)[C@H](CO)NCC31CCN(C(=O)Nc2ccc(F)cc2F)CC1
22	-1.7	COc1ccc(NC(=O)N(C)C[C@@H]2Oc3ccc(NC(=O)CCN4CCOCC4)cc3CC(=O)N([C@H](C)CO)C[C@@H]2C)cc1
23	4.3	C/C=C/c1ccc([C@@H]2[C@H](CO)N3C(=O)CN(Cc4ccc(F)cc4)C[C@@H]23)cc1
24	-9.3	Cc1noc(C)c1S(=O)(=O)Nc1ccc2c(c1)C(=O)N([C@@H](C)CO)C[C@@H](C)[C@H](CN(C)C(=O)c1ccccc1)OCCCC[C@@H](C)O2
25	2.1	COCC#Cc1ccc(CC[C@H]2O[C@H]3CC[C@H](CO)O[C@H]3C[C@H]2n2cc(C3CC3)nn2)cc1
26	2.3	C/C=C/c1ccc([C@H]2[C@@H](CO)N3C(=O)CN(C(=O)Nc4cc(F)ccc4F)C[C@@H]23)cc1
27	-1.9	O=C(c1cccc(F)c1)N1CC(=O)N2[C@H](CO)[C@H](c3ccc(-c4cccnc4)cc3)[C@H]2C1
28	-3.1	O=C(C1CCCC1)N1CC(=O)N2[C@H](C1)[C@H](c1ccc(C#Cc3cccc(F)c3)cc1)[C@@H]2CO
29	-1.5	C[C@@H]1CN([C@H](C)CO)C(=O)c2cc(NC(=O)Nc3cccc4ccccc34)ccc2O[C@@H](C)CCCCO[C@@H]1CN(C)S(=O)(=O)c1ccc(Cl)cc1
30	-1.5	CC(C)CC#Cc1ccc([C@@H]2[C@H]3CN(C(=O)c4ccccn4)CC(=O)N3[C@H]2CO)cc1

Part of the list above in order of number of heavy atoms, low to high.
cpd	AF4-AF9 inh	SMILES
6	3.2	O=C(C1CCCC1)N1CC[C@@H]2[C@@H](CO)Nc3ccc(Br)cc3[C@@H]21
16	-3.2	O=C(NC[C@H]1CC[C@H]2[C@H](CN2Cc2cccc(Cl)c2)O1)C1CCC1
7	5.1	C/C=C/c1ccccc1[C@H]1[C@@H](CO)N(C(=O)Nc2ccccc2F)[C@H]1C#N
1	0.6	CS(=O)(=O)N1CC(=O)N2[C@H](CO)[C@@H](c3ccc(C#CC4CCCC4)cc3)[C@H]2C1
2	-2.9	Cn1cnc(S(=O)(=O)N2[C@@H]3CNC[C@H]2C3c2ccc(-c3ccc(F)cc3)cc2)c1 (some centres not stated)
18	14	COc1ccc(C#Cc2ccc3c(c2)[C@@H]2[C@@H](CCN2C(=O)C2CC2)[C@H](CO)N3)cc1
8	8.4	O=C(CC1CC1)N1CC(=O)N2[C@@H](CO)[C@H](c3ccc(/C=C/c4ccccc4)cc3)[C@@H]2C1
17	-3.7	CNC(=O)C[C@H]1CC[C@@H]2[C@@H](COc3ccc(NC(=O)C4CCCCC4)cc3C(=O)N2C)O1
25	2.1	COCC#Cc1ccc(CC[C@H]2O[C@H]3CC[C@H](CO)O[C@H]3C[C@H]2n2cc(C3CC3)nn2)cc1
11	-1.6	CO[C@H]1CN(C)C(=O)c2cc(NC(=O)c3ccc4c(c3)OCO4)ccc2OC[C@@H](C)NC[C@@H]1C
10	0.3	C[C@H]1CN([C@@H](C)CO)C(=O)c2cc(NS(C)(=O)=O)ccc2O[C@H]1CN(C)Cc1ccc(Cl)c(Cl)c1
22	-1.7	COc1ccc(NC(=O)N(C)C[C@@H]2Oc3ccc(NC(=O)CCN4CCOCC4)cc3CC(=O)N([C@H](C)CO)C[C@@H]2C)cc1
20	-0.3	C[C@H](CO)N1C[C@H](C)[C@@H](CN(C)C(=O)c2ccccc2)OCCCC[C@H](C)Oc2ccc(NS(=O)(=O)c3cn(C)cn3)cc2C1=O
9	-2.5	Cc1noc(C)c1NC(=O)N(C)C[C@@H]1OCCCC[C@H](C)Oc2ccc(NC(=O)c3ccccc3)cc2C(=O)N([C@H](C)CO)C[C@H]1C
15	-1.5	Cc1ccc(S(=O)(=O)Nc2ccc3c(c2)C(=O)N([C@@H](C)CO)C[C@@H](C)[C@H](CN(C)C(=O)Cc2ccccc2)OCCCC[C@@H](C)O3)cc1
29	-1.5	C[C@@H]1CN([C@H](C)CO)C(=O)c2cc(NC(=O)Nc3cccc4ccccc34)ccc2O[C@@H](C)CCCCO[C@@H]1CN(C)S(=O)(=O)c1ccc(Cl)cc1

Further compounds follow.
cpd	AF4-AF9 inh	SMILES
31	0.6	O=C(C[C@@H]1CC[C@H]2[C@@H](COC[C@@H](O)CN2C(=O)c2ccc3c(c2)OCO3)O1)NCCN1CCCC1
32	1.3	COc1ccccc1C(=O)Nc1ccc2c(c1)C(=O)N(C)C[C@H](OC)[C@H](C)CN(CC1CC1)[C@H](C)CO2
33	2.3	C[C@@H]1CN([C@@H](C)CO)C(=O)c2cc(NC(=O)Nc3ccc(F)cc3)ccc2O[C@@H](C)CCCCO[C@@H]1CN(C)S(=O)(=O)c1cn(C)cn1
34	0.0	C[C@@H]1CCCCO[C@@H](CN(C)C(=O)c2ccccc2)[C@@H](C)CN([C@H](C)CO)C(=O)c2cc(NC(=O)c3ccncc3)ccc2O1
35	-3.3	CCCNC(=O)N1[C@H](CO)[C@H](c2ccccc2)[C@@H]1CNC(=O)C1CCC1
36	17	OC[C@H]1[C@H](c2ccc(-c3cccc(F)c3)cc2)[C@@H]2CN(CCC(F)(F)F)CCCCN12
37	-9.7	COCC(=O)N1CCC2(CC1)CN[C@H](CO)c1c2c2ccc(OC)cc2n1C
38	-14	CCCC#Cc1ccc([C@H]2[C@@H](CO)N3C(=O)CN(C(=O)CN4CCOCC4)C[C@@H]23)cc1
39	-2.2	O=C1CN(S(=O)(=O)c2ccccc2)C[C@@H]2[C@H](c3ccc(C#Cc4ccccc4)cc3)[C@H](CO)N12
40	-3.5	COCC(=O)Nc1ccc2c(c1)OC[C@H](C)N(C(C)=O)C[C@H](C)[C@@H](OC)CN(C)C2=O
41	-2.4	C[C@@H]1CCCCO[C@H](CN(C)C(=O)Nc2ccc(F)cc2)[C@@H](C)CN([C@@H](C)CO)C(=O)c2cc(NS(=O)(=O)c3ccc(Cl)cc3)ccc2O1
42	-7.7	COc1ccc(C(=O)Nc2ccc3c(c2)OC[C@@H](C)N(Cc2cocn2)C[C@H](C)[C@H](OC)CN(C)C3=O)cc1
43	-2.7	COCC(=O)N1CC2(C1)CN(C(=O)Nc1ccccc1F)[C@@H](CO)c1[nH]c3cc(OC)ccc3c12
44	-5.0	O=C(Nc1ccc(C(F)(F)F)cc1)N1[C@@H]2CNC[C@H]1C2c1ccc(-c2ccccc2)cc1 (some centres not stated)
45	16	COc1ccc2c3c(n(C)c2c1)[C@H](CO)N(S(=O)(=O)c1ccc(C)cc1)CC31CCN(C)CC1
46	-2.2	CC(=O)N1CC(=O)N2[C@@H](CO)[C@H](c3ccc(C#Cc4cccnc4)cc3)[C@@H]2C1
47	-3.2	CCCNC(=O)N1CC2(C1)CN(Cc1ccc(F)cc1)[C@H](CO)c1[nH]c3cc(OC)ccc3c12
48	-3.0	O=C(C[C@@H]1CC[C@H]2[C@@H](COC[C@@H](O)CN2S(=O)(=O)c2ccc(Cl)cc2)O1)NCCN1CCCCC1
49	0.1	C/C=C/c1ccc([C@H]2[C@@H](CO)N(C(=O)C3CC3)C23CN(S(=O)(=O)CC)C3)cc1
50	-0.9	CC(=O)NC[C@H]1[C@@H](c2ccc(C#CC(C)C)cc2)[C@@H](CO)N1Cc1ccccn1
51	3.0	Cc1ccc(-c2ccc([C@H]3[C@H](CO)N4C(=O)CN(C(=O)Nc5ccc(F)cc5)C[C@@H]34)cc2)cc1
52	0.5	COc1ccc2c3c(n(C)c2c1)[C@H](CO)N(C(=O)Nc1ccccc1F)CC31CCN(C(=O)c2ccccc2)CC1
53	0.1	CCCNC(=O)C[C@@H]1CC[C@H]2[C@@H](COc3ccc(NS(=O)(=O)c4ccccc4C)cc3C(=O)N2C)O1
54	8.6	O=C(c1ccccn1)N1CC(=O)N2[C@H](C1)[C@@H](c1ccc(C#Cc3ccccc3)cc1)[C@@H]2CO
55	-3.0	CC(=O)NC[C@H]1[C@H](c2ccc(-c3cccc(F)c3)cc2)[C@H](CO)N1C(C)=O
56	0.2	C[C@H](NC(=O)N(C)C[C@H]1OCc2ccccc2-c2c(n(C)c3ccccc23)C(=O)N([C@H](C)CO)C[C@H]1C)c1ccccc1
57	-2.7	C[C@@H]1CN([C@H](C)CO)C(=O)Cc2cc(NC(=O)c3ccncc3)ccc2O[C@H]1CN(C)C(=O)Nc1cccc2ccccc12
58	-0.5	COCC(=O)N1CC(=O)N2[C@H](C1)[C@@H](c1ccc(C#CC3CCCC3)cc1)[C@@H]2CO
59	8.0	N#C[C@H]1[C@@H](c2ccc(C#Cc3cccc(F)c3)cc2)[C@@H](CO)N1C(=O)C1CCC1

Retrieved by structure from above (2):
cpd	AF4-AF9 inh	SMILES
51	3.0	Cc1ccc(-c2ccc([C@H]3[C@H](CO)N4C(=O)CN(C(=O)Nc5ccc(F)cc5)C[C@@H]34)cc2)cc1
46	-2.2	CC(=O)N1CC(=O)N2[C@@H](CO)[C@H](c3ccc(C#Cc4cccnc4)cc3)[C@@H]2C1

As entered above:
Under AF4-AF9 inh, `Cc1ccc(-c2ccc([C@H]3[C@H](CO)N4C(=O)CN(C(=O)Nc5ccc(F)cc5)C[C@@H]34)cc2)cc1` is listed with 3.0
Under AF4-AF9 inh, `COc1ccc2c3c(n(C)c2c1)[C@H](CO)N(S(=O)(=O)c1ccc(C)cc1)CC31CCN(C)CC1` is listed with 16
Under AF4-AF9 inh, `O=C1CN(Cc2ccc(F)cc2)C[C@H]2[C@@H](c3ccc(-c4cccnc4)cc3)[C@H](CO)N12` is listed with -0.9

A portion of the library; rates above refer to the full screens.
